RanGTP-Imp inh: inhibitors of RanGTP-importin-beta interaction, primary screen, biochemical, FRET, CFP-Ran, YFP-importin-beta, homogeneous | 300,000 tested, 1.1% active | cell-free CFP-Ran/YFP-importin-beta FRET ratio | inhibition, % (concentration not given with the values);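 active = most replicates above 15%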;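 also: 0% = DMSO wells and 100% = Ran loaded with GDP instead of GTP; wells of about 40 µL received 100 nL stock; the first replicate is given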
UCH37 DUB inh: blocks the human deubiquitinase UCH37 | 330,000 tested, 0.33% active | Q9Y5K5 | purified proteasome/UCH37, Ub-AMC cleavage fluorescence | inhibition, % (no concentration beside the values) | AID 588478;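 active = mean of two replicates above 20%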;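 also: 0% = compound-free wells with enzyme and 100% = wells lacking proteasome; stock transfer was 100 nL into about 20 µL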
Target sequence (Q9Y5K5 whole entry, looked up): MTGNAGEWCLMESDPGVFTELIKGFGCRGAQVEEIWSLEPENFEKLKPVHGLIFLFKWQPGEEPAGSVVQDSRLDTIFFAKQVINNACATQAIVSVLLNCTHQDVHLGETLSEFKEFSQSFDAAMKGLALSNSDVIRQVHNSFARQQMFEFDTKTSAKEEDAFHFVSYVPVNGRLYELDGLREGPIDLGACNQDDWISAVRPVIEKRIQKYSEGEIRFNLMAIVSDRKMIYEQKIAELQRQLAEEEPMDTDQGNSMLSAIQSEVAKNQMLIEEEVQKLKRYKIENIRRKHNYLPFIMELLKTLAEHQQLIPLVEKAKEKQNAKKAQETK
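assay system = human UCH37 enzyme supplied as purified proteasome complex | amount = proteasome at 0.15 nM in the dispensed enzyme solution | schedule = 30 min compound-proteasome preincubation then 25 min substrate reaction, room temperature | measured by = fluorescence, ex 355 nm, em 460 nm | benchmarks = no-proteasome wells (full inhibition) and compound-free wells (no inhibition)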
T cruzi repl: blocks replication of Trypanosoma cruzi; AID 1885; 300,000 tested, 1.4% active; inhibition, % (test concentration not listed); T. cruzi beta-gal in NIH3T3, luminescence, 90 h;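 active = mean inhibition across valid replicates above about 55%, limit read from the data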;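 also: signal also drops with host cell toxicity which is not excluded here; 0% = plate median of DMSO wells and 100% = zero luminescence signal; higher percent means less beta-gal luminescence so fewer parasites; stock transfer was 50 nL into about 50 µL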
Beta2AR agonist: activates human beta-2 adrenergic receptor causing internalization | P07550 | Am2.2-beta2AR cells, FAP receptor internalization, flow cytometry; reference of the scale not given here | response, % (concentration not given with the values) | 340,000 tested, 0.43% active | AID 504454;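 active = response above a set limit, near 3 SD of response in nonfluorescent compounds, cut at about 42% in these data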;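 also: stock transfer was 100 nL into about 11 µL; a reference agonist was the positive control; negative values mostly stem from fluorescent compounds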
LANA-H2B inh: blocks KSHV LANA binding to histone H2A/H2B; Q9QR71; cell-free LANA-H2A/H2B peptide, fluorescence polarization; inhibition, % (test concentration not listed); 320,000 tested, 0.6% active; AID 2629; in the data active = inhibition mostly above about 10%, no sharp cut-off; inactive = mostly below about 6.7%;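 also: stock transfer was 7.5 nL into about 10 µL; 0% = median of vehicle wells and 100% = median of positive control wells; one replicate is shown; the record names a cut of 25% in any replicate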
Bfl-1 A1 inh: inhibitors of the anti-apoptotic protein A1, read as caspase activation. MEF A1-2A-BIM cells, Caspase-Glo 3/7 luminescence, 3 h; percent of clofoctol response, vehicle zero. caspase activation, % (concentration not given with the values). 330,000 tested, 0.066% active. AID 2462;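 active = over half of replicate activation scores above 10%, or exactly half above 10 with the replicate mean above 10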;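 also: wells of about 30 µL received 50 nL stock; many hits fall short of the cut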
An asterisk follows results filed as active; / = no result given. This is a subset; count on the stated rates, not on these rows.

A first look:
Values run as follows: RanGTP-Imp inh, UCH37 DUB inh, T cruzi repl, Beta2AR agonist, LANA-H2B inh, Bfl-1 A1 inh
> Oc1ccc2c(c1)OCC1(O)Cc3cc(O)c(O)cc3C21 (stereo not given)
    /, /, /, -4, /, /
> O=c1oc2c(O)c(O)cc3c(=O)oc4c(O)c(O)cc1c4c23
    /, /, /, -4, 2.3, -0.5
> COc1cc([C@@H]2Oc3cc(C4Oc5cc(O)cc(O)c5C(=O)[C@H]4O)ccc3O[C@H]2CO)ccc1O (stereo not given in full)
    /, /, /, 0, -1.5, 0.0

The whole of this part, from the start:
Values run as follows: RanGTP-Imp inh, UCH37 DUB inh, T cruzi repl, Beta2AR agonist, LANA-H2B inh, Bfl-1 A1 inh
> Oc1ccc2c(c1)OCC1(O)Cc3cc(O)c(O)cc3C21 (stereo not given)
    /, /, /, -4, /, /
> O=c1oc2c(O)c(O)cc3c(=O)oc4c(O)c(O)cc1c4c23
    /, /, /, -4, 2.3, -0.5
> COc1cc([C@@H]2Oc3cc(C4Oc5cc(O)cc(O)c5C(=O)[C@H]4O)ccc3O[C@H]2CO)ccc1O (stereo not given in full)
    /, /, /, 0, -1.5, 0.0
> N#Cc1ccc(C(c2ccc(C#N)cc2)n2cncn2)cc1
    4.2, 1.0, -6, /, /, /
> C/C=C/C(=O)N(CC)c1ccccc1C
    /, -0.7, /, 2, /, /
> C=CC[n+]1ccc(/C=C2\C=Cc3cc(C)ccc3N2CC)c2ccccc21
    /, 6.7, /, 14, /, /

Profiles from above. Order of values: RanGTP-Imp inh, UCH37 DUB inh, T cruzi repl, Beta2AR agonist, LANA-H2B inh, Bfl-1 A1 inh
Record of C=CC[n+]1ccc(/C=C2\C=Cc3cc(C)ccc3N2CC)c2ccccc21 : /, 6.7, /, 14, /, /
Record of N#Cc1ccc(C(c2ccc(C#N)cc2)n2cncn2)cc1 : 4.2, 1.0, -6, /, /, /
Record of Oc1ccc2c(c1)OCC1(O)Cc3cc(O)c(O)cc3C21 (stereo not given) : /, /, /, -4, /, /

Retrieved by compound from above (two):
Values run as follows: RanGTP-Imp inh, UCH37 DUB inh, T cruzi repl, Beta2AR agonist, LANA-H2B inh, Bfl-1 A1 inh
> N#Cc1ccc(C(c2ccc(C#N)cc2)n2cncn2)cc1
    4.2, 1.0, -6, /, /, /
> COc1cc([C@@H]2Oc3cc(C4Oc5cc(O)cc(O)c5C(=O)[C@H]4O)ccc3O[C@H]2CO)ccc1O (stereo not given in full)
    /, /, /, 0, -1.5, 0.0

Source: PubChem
